ClpP mod: qHTS Assay for Activators of ClpP; purified B. subtilis ClpP, FRET peptide cleavage, 20 min; hit rate 1.9% among 340,000; Potency, µM (highest dose often 57.5 µM), without a hit: at the top dose activity change, negative = active; active = well fitted falling curve with a large enough effect; inconclusive = small, poorly fitted or top-dose-only effect; inactive = no such curve, though single readings can be large or run the other way; note: potency is the fitted concentration of half-maximal effect; the source files actives as falling curves though it sought activators and does not explain the sign; nearly all actives have a fitted effect of over 65% in size; many hits overshoot -100%
Target sequence (P80244 whole entry, looked up): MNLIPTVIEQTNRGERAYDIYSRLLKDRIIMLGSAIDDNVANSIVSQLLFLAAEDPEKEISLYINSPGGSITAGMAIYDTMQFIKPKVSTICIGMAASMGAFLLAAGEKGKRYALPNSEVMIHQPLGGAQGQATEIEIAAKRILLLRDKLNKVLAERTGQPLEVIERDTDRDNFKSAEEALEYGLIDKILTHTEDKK
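Buffer: 100 mM Tris/HCl pH8, 100 mM KCl, 0.05% low protease BSA, 2.5% glycerol, 0.01% Tween-20. ClpP 10 microg/mL final; 20 min RT; delta FRET normalized to ADEP and DMSO controls.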
gsp ag: qHTS for Agonist of gsp, the Etiologic Mutation Responsible for Fibrous Dysplasia/McCune-Albright Syndrome: qHTS | hit rate 0.13% among 340,000 | Potency, µM (series often up to 76.9 µM), without a hit: top-dose activation (cAMP increase), most hits filed as activators | gsp mutant cells, cAMP HTRF, 30 min; control for the full effect not named in the record; active = well fitted activation curve with a large enough effect; inconclusive = small, poorly fitted or top-dose-only effect, or another doubt; inactive = no such curve, though single readings can be large or run the other way; cell line not stated here;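 note: phosphodiesterase inhibitor Ro 20-1724 added with compounds to block cAMP breakdown; potency is the fitted concentration of half-maximal effect; nearly all actives have a fitted effect of over 60% in size; about a fifth of the inactives were tested at one dose only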
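Cells stably selected in G418 were plated at 2000/well, grown 16-24 hr, then given compounds in DMSO with the PDE inhibitor […] (300 uM solution added) for 30 min at 37C; cAMP was read by HTRF.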
Menin-MLL FL inh: qHTS Assay for Inhibitors Targeting the Menin-MLL Interaction in MLL Related Leukemias: Competition With Fluorescein Labeled MLL-derived Peptide | Fluorescence polarization, fluorescein-MLL peptide displacement from menin | FP activity change, % at 61.4 µM | 290,000 tested, under 10 active; inconclusive = falling polarisation curve, or a change in total fluorescence; inactive = total fluorescence flat and polarisation flat or rising; no compound was filed as active; the % refers to the polarisation; negative = inhibition;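 note: % of control where 0% means no effect; inhibitors lower the polarisation; unlabelled MLL peptide was the positive control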
Sfp PPTase inh: qHTS Assay for Inhibitors of Bacillus subtilis Sfp phosphopantetheinyl transferase (PPTase). 4'-phosphopantetheinyl transferase ffp (Bacillus subtilis), Q9F4F7. Biochemical Sfp PPTase activity, qHTS. Potency, µM, for inactives: max response, negative = inhibition, usual class: inhibitors. hit rate 3.5% among 310,000; active = well fitted inhibition curve with a large enough effect; inconclusive = small, poorly fitted or top-dose-only effect, or another doubt; inactive = no such curve, though single readings can be large or run the other way;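 note: the enzyme is Sfp with the accession as filed and its product quenches rhodamine fluorescence; potency is the fitted concentration of half-maximal effect; 0% = enzyme reaction without inhibitor and -100% = no enzyme wells; top concentration of the series not given in the record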
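Reaction rates are the 30-min fluorescence difference (ex 525, em 598 nm) in wells containing 15 nM Sfp, 5 uM rhodamine-CoA and 12.5 uM BHQ-2-YbbR at pH 7.6 with 10 mM MgCl2.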
gsp antag: qHTS for Antagonists of gsp, the Etiologic Mutation Responsible for Fibrous Dysplasia/McCune-Albright Syndrome: qHTS; gsp-mutant cells, cAMP HTRF, 30 min; control for the full effect not named in the record; Potency, µM (series often up to 76.9 µM), for inactives: at the top dose activity change, negative = inhibition, most hits filed as inhibitors; hit rate 0.4% among 340,000; AID 624288, 2012; active = falling curve of any shape with a large fitted effect; inconclusive = falling curve, mostly with a smaller effect; inactive = flat or rising curve; cell line not stated here;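 note: intracellular cAMP measured with PDE inhibitor Ro 20-1724 present during compound exposure; potency is the fitted concentration of half-maximal effect; % is set by controls: 0 for no effect and ±100 for the full control effect; nearly all actives have a fitted effect of over 65% in size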
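Cells, 2000/well, grown 16–24 h in DMEM 10% FBS with 0.5 mg/ml G418, then compounds plus […] (300 uM addition stock), 30 min at 37C. cAMP read by HTRF (cAMP-d2 and anti-cAMP antibody-K in lysis buffer) after 30 min RT.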
TRPV1 PAM: HTS Assay for Compounds that Act as Potentiators of the Vanilloid Receptor 1; Transient receptor potential cation channel subfamily V member 1 (Homo sapiens), Q8NER1; TRPV1-expressing cells, Fluo-8 calcium influx, capsaicin EC20 potentiation; host cell line not named in the record; control for the full effect not named in the record; potentiation, % at 8.33 µM; hit rate 0.02% among 320,000; AID 540277, 2011; active means potentiation above 80%; inconclusive means 30% to 80%; inactive means below 30%; note: 0% is about no effect
Target sequence (Q8NER1 whole entry, looked up): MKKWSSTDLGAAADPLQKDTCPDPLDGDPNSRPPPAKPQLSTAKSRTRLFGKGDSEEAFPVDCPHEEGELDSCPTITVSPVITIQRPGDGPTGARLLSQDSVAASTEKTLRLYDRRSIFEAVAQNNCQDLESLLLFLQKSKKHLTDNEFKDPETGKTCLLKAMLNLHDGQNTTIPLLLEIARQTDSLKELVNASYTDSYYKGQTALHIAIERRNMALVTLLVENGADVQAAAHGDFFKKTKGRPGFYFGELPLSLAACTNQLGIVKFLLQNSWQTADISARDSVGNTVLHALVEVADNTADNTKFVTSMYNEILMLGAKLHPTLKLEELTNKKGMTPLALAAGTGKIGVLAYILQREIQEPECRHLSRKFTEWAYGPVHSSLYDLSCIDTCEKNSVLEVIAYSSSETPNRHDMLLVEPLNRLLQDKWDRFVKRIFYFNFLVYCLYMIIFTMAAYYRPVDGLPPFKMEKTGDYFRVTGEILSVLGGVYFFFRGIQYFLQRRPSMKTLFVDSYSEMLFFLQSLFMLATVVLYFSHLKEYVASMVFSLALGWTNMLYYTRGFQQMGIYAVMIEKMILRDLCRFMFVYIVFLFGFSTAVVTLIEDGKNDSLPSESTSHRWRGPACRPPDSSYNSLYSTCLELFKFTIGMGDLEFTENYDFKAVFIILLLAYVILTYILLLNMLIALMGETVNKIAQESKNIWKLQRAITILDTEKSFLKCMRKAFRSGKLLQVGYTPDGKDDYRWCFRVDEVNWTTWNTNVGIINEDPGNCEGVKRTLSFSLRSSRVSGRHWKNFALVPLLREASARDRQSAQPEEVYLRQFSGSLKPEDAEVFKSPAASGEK
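Cells expressing TRPV1 were dye-loaded with Fluo-8 and read kinetically: 10 s baseline, 3 min after compound (agonist portion), then 2 min after EC20 capsaicin (allosteric enhancer portion). Calcium-bound dye fluorescence at 480/520 nm.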
TRPML1 inh: qHTS for Inhibitors of the Human Mucolipin Transient Receptor Potential 1 (TRPML1); TRPML1-inducible cells, Ca2+ dye fluorescence, FDSS; stronger effect = lower value; inhibition of EC80 agonist-evoked calcium signal; Mucolipin-1 (Homo sapiens), Q9GZU1; activity change, negative = inhibition, % (test concentration not listed); hit rate 0.02% among 390,000; in the data active means activity change below about -50%; inconclusive means about -30% to -50%; inactive means above about -30%;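 note: stimulus is agonist 54-4 at its EC80 concentration; % is set by controls: 0 for no effect and ±100 for the full control effect; compound concentration not given in the record; the text of the record puts the active cut at -80%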
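TRPML1-DL cells, Tet-induced overnight (~16 h, 37 °C) at 1,500 cells/well, were loaded with Ca8 no-wash dye plus quencher for 45-90 min at room temperature. Compounds were pinned during FDSS kinetic reading; agonist 54-4 at EC80 (4 uM final) then added.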
An asterisk follows results filed as active; ? = inconclusive; . = not tested or not shown; & = joins results of further samples; [ ] = remark or other dose.

| Structure | TRPV1 PAM | Sfp PPTase inh | ClpP mod | Menin-MLL FL inh | TRPML1 inh | gsp antag | gsp ag |
| --- | --- | --- | --- | --- | --- | --- | --- |
| CC1(OC(=O)C2CCCC2)C(=O)C=C2C=C(c3ccsc3)N(Cc3ccco3)C=C2C1=O (centres undefined) | -9 | -20%&-21% | 2.9% | ? | 6 | -4% | . |
| NC(=O)/C(=C\c1ccccc1)NC(=O)c1ccc(NC(=O)c2ccccc2)cc1 | . | 15% | -16% | 1.4 | -13 | 0% | 9% |
| COc1ccc(CCN(Cc2cc3cc(C)ccc3[nH]c2=O)C(=O)N2CCCC2)cc1OC | 10 | -16% | -8.5% | -4.0 | 4 | -10% | -3% |
| Cc1cccc(NC(=O)CCn2ccnc2C)c1 | -12 | 10% | -2.2% | -0.2 | -13 | 5% | -9% |
| COc1ccc(S(=O)(=O)N(C)C[C@H]2Oc3ccc(NC(=O)C4CC4)cc3C(=O)N([C@H](C)CO)C[C@@H]2C)cc1 | . | . | -0.9% | . | 3 | 3% | -41%[inhibitor] |
| COC(=O)c1cc(OC)c(OCc2cc(C(=O)OC)oc2C)c(OC)c1 | 3 | 14% | -0.7% | -0.7 | 14 | -7% | -27% |
| CCOc1cc(C2NC(=O)NC(C)=C2C(=O)NCc2ccccc2)c(Cl)cc1O (centres undefined) | -1 | 11% | -0.1% | 0.1 | -22 | 5% | -13% |
| C[N+](C)(C)C(Cc1c[nH]c2ccccc12)C(=O)[O-] (centres undefined) | -2 | 15% | . | 4.1 | . | . | . |
| Cc1noc(C)c1COc1ccccc1C(=O)NC(C)CCc1ccccc1 (centres undefined) | . | . | . | . | 20 | -4% | 9%[15.4 µM] |
| CCN(CC)C(=O)C(=O)c1cccn1-c1ccc(C#N)cc1 | 4 | -3% | 0.2% | 3.8 | -7 | 2% | -5% |
| COc1ccc(CCN=c2c([N+](=O)[O-])nn(-c3cccc(C)c3)n2O)cc1OC | -9 | 14% | 1.2% | -1.4 | 12 | -3% | -4% |
| C(=N\n1cnnc1)/c1cccnc1 | -8 | 11% | -1.2% | 0.8 | 21 | -3% | 18% |
| COc1ccc(NC(=O)COC(=O)Cc2ccc(Br)cc2)cc1 | -17 | 9% | . | -2.0 | 0 | -15% | 1%[15.4 µM] |
| COC(=O)c1ccc(NC(=O)CSc2nc(N)c(NC(=O)c3ccc(Br)o3)c(=O)[nH]2)cc1 | 9 | -2% | -20% | . | -4 | 7% | 17%[15.4 µM] |
| CCOC(=O)c1nn(-c2cccc(C)c2)c2nnc(Cc3ccc(C)cc3)c(=O)n12 | -1 | -4% | 0.5% | -1.0 | 2 | -23% | -38%[inhibitor] |
| CCc1cc(-c2n[nH]c(C)c2-c2nc(C)cs2)c(O)cc1OC | -2 | -19% | . | -3.3 | -4 | 4% | 9%[15.4 µM] |
| Cc1ccc(C(=O)CN2C(=O)C(C)Oc3ccccc32)cc1 (centres undefined) | 2 | 2% | -0.3% | -2.0 | -3 | 3% | -22% |
| COC(=O)C(Cc1c[nH]c2ccccc12)NC(=O)c1cc(-c2ccc(OC)c(OC)c2)oc1C (centres undefined) | 8 | 32µM* | -4.2% | 5.3 | 52 | ? | 8% |
| CN(CC(=O)Nc1cccc(F)c1)C(=O)c1cn2ccccc2n1 | 2 | . | -28% | . | 8 | 4% | -15% |
| C#CCOCCOCCOCCNc1nc(N2CCN(C(=O)[C@H](CCCCN)n3cc(CCCC)nn3)CC2)nc(N2CCN(C(=O)[C@H](Cc3ccc(O)cc3)n3cc(CCO)nn3)CC2)n1 | ? | -10% | 0.5% | 3.6 | 7 | 9% | -34%[inhibitor] |

Sfp PPTase inh, entries above that show a hit.
structure	Sfp PPTase inh	Menin-MLL FL inh	TRPML1 inh	gsp antag	gsp ag
COC(=O)C(Cc1c[nH]c2ccccc12)NC(=O)c1cc(-c2ccc(OC)c(OC)c2)oc1C (centres undefined)	32µM*	5.3	52	?	8%

(further entries)
| Structure | TRPV1 PAM | Sfp PPTase inh | ClpP mod | Menin-MLL FL inh | TRPML1 inh | gsp antag | gsp ag |
| --- | --- | --- | --- | --- | --- | --- | --- |
| Cc1sc(N)nc1C12CC3CC(CC(C3)C1)C2 | -1 | -12% | -2.8% | -2.6 | -4 | 3% | -7%[15.4 µM] |
| CCOC(=O)C1=C(C)NC2=C(C(=O)c3ccccc32)C1c1ccc(O)cc1 (centres undefined) | -6 | -3% | -0.4% | . | 1 | 8% | 2% |
| CN(C)N=Nc1ccc(S(=O)(=O)NC(Cc2ccccc2)C(=O)O)cc1 (centres undefined) | 4 | 13% | . | 0.4 | -14 | -1% | ? |
| O=C(OC1CCN(c2ncc(C(F)(F)F)cc2Cl)CC1)c1ccc(Cl)cc1 | 1 | -10% | -0.8% | -0.6 | -10 | -2% | -42%[inhibitor] |
| Oc1ccccc1C=NCCN1CCN(CCN=Cc2ccccc2O)C1c1ccccc1O (centres undefined) | . | . | . | . | 1 | -13% | ? |
| c1ccc(CSc2nnc3c(n2)OC(c2ccco2)Nc2ccccc2-3)cc1 (centres undefined) | . | -23% | -1.9% | 14 | 2 | 3% | -2% |
| COc1ccc(NC(=S)N(CCCN2CCCC2)Cc2ccco2)cc1 | -1 | 8% | . | -1.2 | 1 | 14% | 2%[15.4 µM] |
| Cc1nn(C)cc1CNC(=O)c1cccc(Cl)c1 | 8 | 16% | 1.0% | 0.1 | -1 | 6% | 10% |
| O=C(NCc1n[nH]c(=S)n1-c1ccc(Cl)c(Cl)c1)c1ccc(S(=O)(=O)N2CCOCC2)cc1 | 25 | -20% | -0.3% | 0.0 | -8 | -19% | -30% |
| Cc1cccc(NC(=O)c2ccccc2SCc2ccc(F)cc2)n1 | -5 | . | -0.7% | . | 39 | -23% | -48%[inhibitor] |
| O=S(=O)(c1ccccc1)N1CCC2(CC1)OCCO2 | -6 | 2% | . | 0.1 | 25 | 1% | 2%[15.4 µM] |
| CCCCC(C)n1[nH]c(=O)cc1N (centres undefined) | 1 | 14% | -0.3% | 4.1 | -20 | -4% | ? |
| N=C1C(c2nc3ccccc3[nH]2)=C(O)CN1NC(=O)c1c[nH]c2ccccc12 | 0 | 6% | -0.6% | -0.7 | -14 | 10% | -9% |
| CCOc1ccccc1N1CCN(C(=O)c2cc(C)oc2C)CC1 | -3 | 6% | -1.2% | 3.5 | 19 | -8% | 8% |
| Cc1ccccc1NC(=O)C(NC1CCCCC1)C(C)C (centres undefined) | -14 | 7% | -0.7% | -0.3 | -8 | 3% | -57%[inhibitor] |
| CSCC[C@H](NC(=O)Nc1ccc(OC(F)(F)F)cc1)C(=O)O | 2 | 9% | . | 0.7 | -1 | 5% | 12% |
| CC(Sc1nncs1)C(=O)NCc1ccc2c(c1)OCO2 (centres undefined) | -1 | 7% | -0.1% | 2.9 | -6 | 10% | -16% |
| COCCNC(=O)CN1C(=O)COc2ccc(S(=O)(=O)N3CC(C)CC(C)C3)cc21 (centres undefined) | 23 | 24% | 1.3% | -0.2 | 6 | -5% | -2% |
| COc1ccc(OC)c(NC(=O)CSc2nnc(CNC(=O)c3ccccc3F)o2)c1 | ? | 10% | -0.9% | . | -6 | -1% | 5% |
| Cc1cc(NC(=O)c2cccc([N+](=O)[O-])c2)n(-c2ccccc2)n1 | 11 | 5% | 1.2% | 3.4 | 2 | 9% | 1% |
| COc1cccc(-n2c(=O)c3c(C)c(C(=O)N(C)C)sc3n(CC(=O)NCCc3ccc(OC)c(OC)c3)c2=O)c1 | -2 | 4% | -6.9%&0.0% | -2.4 | 8&-12 | 14% | -6%[15.4 µM] |
| O=C(Cc1cccs1)NCc1ccc(Cl)cc1Cl | -21 | 15% | . | 4.4 | 2 | -10% | -28% |
| S=c1[nH]nc(C2CCCCC2)n1/N=C/c1ccccc1Cl | 18 | 63µM* | 1.0% | -0.4 | -23 | 40µM* | 27%[15.4 µM] |
| Cc1ccccc1Nc1ncc(C#N)c(N)n1 | 14 | 1% | -0.5% | 5.9 | -2 | 7% | -26% |
| O=C(Nc1cccc(OC(=O)c2ccc(Br)o2)c1)c1ccccc1 | -19 | 5% | -3.4% | . | 10 | -8% | -39% |
| COc1ccc(N(CC(=O)NCc2cccnc2)S(=O)(=O)c2ccccc2)c(OC)c1 | . | . | 1.4% | . | -5 | -3% | ? |
| COC(=O)c1ccc(COC(=O)c2cccnc2Cl)cc1 | 2 | 8% | . | . | -3 | -14% | 0% |
| CCOC(=O)c1c(C)c(C(=O)NCc2cccs2)c(C)n1CC | -3 | -1% | -0.7% | 5.0 | -10 | -6% | -30% |
| CCC(C(=O)N1CCN(Cc2ccc3c(c2)OCO3)CC1)n1c(=O)[nH]c2ccccc2c1=O (centres undefined) | 2 | 10% | -13% | . | -8 | -21% | 16% |
| CN(CC(=O)Nc1ccccc1N1CCOCC1)S(=O)(=O)c1ccc(Cl)cc1 | 8 | 5% | 1.6% | -3.1 | 8 | -12% | -11% |

Single records, as listed above. Order of screens: TRPV1 PAM, Sfp PPTase inh, ClpP mod, Menin-MLL FL inh, TRPML1 inh, gsp antag, gsp ag
`CCc1cc(-c2n[nH]c(C)c2-c2nc(C)cs2)c(O)cc1OC` is listed as -2, -19%, ., -3.3, -4, 4%, 9%[15.4 µM]
`COc1ccc(NC(=O)COC(=O)Cc2ccc(Br)cc2)cc1` is listed as -17, 9%, ., -2.0, 0, -15%, 1%[15.4 µM]
`COc1ccc(S(=O)(=O)N(C)C[C@H]2Oc3ccc(NC(=O)C4CC4)cc3C(=O)N([C@H](C)CO)C[C@@H]2C)cc1` is listed as ., ., -0.9%, ., 3, 3%, -41%[inhibitor]

From PubChem
